HCMV UL50-53 inh: inhibitors of HCMV UL50-UL53 nuclear egress complex interaction. inhibition, % (test concentration not listed). actives 0.15% (n = 190,000). AID 1918969. HTRF UL50-UL53 interaction, normalized percent inhibition;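 active means both replicates at 50% or more, plus weaker picks with an unusually low signal ratio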;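 further: stock transfer was 100 nL into about 20 µL; 0% = negative control wells and 100% = wells with untagged competitor protein; inactives centre near -12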
GIV-Gai inh: GIV-Galpha-i interaction inhibition. actives 0.42% (n = 210,000). P08753. percent of control (FP), % (concentration not given with the values). Galpha-i3/FITC-GIV peptide fluorescence polarization, 90 min; hits give low values; scaled: aluminum fluoride 0%, vehicle 100%. AID 1224905;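 active means replicate mean at 85% of control or lower, very high polarization wells dropped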;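 further: wells of about 15 µL received 100 nL stock; the first replicate is given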
Target sequence (P08753 whole entry, looked up): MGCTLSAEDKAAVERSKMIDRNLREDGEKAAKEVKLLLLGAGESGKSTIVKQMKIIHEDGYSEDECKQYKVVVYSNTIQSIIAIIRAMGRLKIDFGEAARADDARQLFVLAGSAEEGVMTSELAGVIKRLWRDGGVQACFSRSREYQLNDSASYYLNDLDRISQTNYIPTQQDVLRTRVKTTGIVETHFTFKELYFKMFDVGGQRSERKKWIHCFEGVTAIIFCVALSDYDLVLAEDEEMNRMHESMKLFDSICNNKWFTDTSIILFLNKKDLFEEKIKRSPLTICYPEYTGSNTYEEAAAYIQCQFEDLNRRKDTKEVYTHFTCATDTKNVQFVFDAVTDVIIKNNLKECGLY
Sa growth 42C: blocks Staphylococcus aureus growth | relative growth, % (no concentration beside the values) | AID 720641 | actives 0.53% (n = 170,000) | S. aureus RN4220 growth, OD600, 20 h, 42 °C; hits give low values;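 active means growth at 42 °C up to 50% and 20 or more points under that at 30 °C, or under 10% at both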;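 further: 300 nL library stock went into each well; scaled to the means of positive and negative controls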
Sa growth 42C second temp: also measured in Sa growth 42C; calls as there; relative growth, %; measured here: growth at 30 °C;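 optical density after 20 h as mean of two plates; 100% = untreated growth and lower means inhibition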
* marks the source's active call; other numbers are inactive results; x = no result given; & = joins results of further samples.

SMILES	HCMV UL50-53 inh	GIV-Gai inh	Sa growth 42C	Sa growth 42C second temp
O=C(NCC(c1cccnc1)N1CCc2ccccc2C1)C(=O)Nc1ccc(F)cc1F (stereo not given)	-6	111	77	78
O=C(Nc1ccc(C(F)(F)F)cc1)C1CCC1	-11	108	113	83
O=C(Nc1cccc(C(F)(F)F)c1)C1CCCN(S(=O)(=O)c2cccc3nonc23)C1 (stereo not given)	-10	108	110	98
O=C(c1cc2nc(-c3ccccc3)cc(-c3ccccc3)n2n1)N1CCCC1	-26	100	95	79
Cc1ccc(Cl)cc1NC(=O)C1CCn2c(nc3ccccc32)C1 (stereo not given)	-43	107	x	x
CCOC(=O)N1CCC(NC(=O)c2nn(C)c3c2CS(=O)(=O)c2ccccc2-3)CC1	x	102	103	93
CC(C)(C)NCc1ccccc1OCc1cccs1	-12	x	97	82
c1ccc(CCn2c(CN3CCOCC3)nc3ccccc32)cc1	4	104	x	x
CC(C)(C)NC(=O)CCCN1C(=O)/C(=C/c2ccccc2)SC1=S	x	99	108	84
COc1cc(C(=O)Nc2ccc3c(c2)CCN3C(C)=O)cc(OC)c1OC	1	107	97	100
O=C1NC2C=NN(c3ccccc3)C(=O)C2NC1=O (stereo not given)	x	102	95	85
CCOC(=O)c1ccc(NC(=O)CSc2nc3ccsc3c(=O)n2Cc2ccc3c(c2)OCO3)cc1	4	102	81	83
COc1cccc(C(=O)Nc2ccccc2-c2nc(-c3ccccc3)no2)c1	-34	105	x	x
CCCCN(CC)c1ncnc2c1sc1nc(N3CCOCC3)c3c(c12)CCCC3	-42	108	100	88
CCOC(=O)C1C(=O)OC2(CCCCC2)C1C#N (stereo not given)	-4	104	125	71
CCCCOc1ccc(C2C3=C(CC(C)(C)CC3=O)Nc3ccccc3N2C(=O)Cc2ccccc2)cc1 (stereo not given)	-4	91	x	x
COc1cc2c(=O)c(C(=O)c3ccc(C)c(C)c3)cn(Cc3ccccc3F)c2cc1OC	17	102	100	89
CCCn1cc(S(=O)(=O)CC(=O)Nc2ccc(C)cc2)c2ccccc21	x	99	106	75
CSc1scc2c1C(=O)CC(C)(C)C2	-8	103	96	88
O=C(NC1CC1)C1CCN(C(=O)c2ccc(Cl)cc2)CC1	-8	104	97	80
CN(C)C(=S)SCC(=O)Nc1ccc(C#N)cc1	-9	x	87	90
COc1ccc(CN(C(=O)NC2CCCC2)C2CCN(C(C)=O)CC2)cc1	-8	101	98	95
COc1ccc(CN2C(=O)c3ccccc3C2C(=O)NC2CCCC2)c(OC)c1 (stereo not given)	-10	94	107	94
OC(CC#CCN1CCOCC1)(c1ccccc1)C1CCCC1 (stereo not given)	-13	103	94	77
COc1ccc(/C=C2\SC(=S)N(CCCC(=O)Nc3c(C)n(C)n(-c4ccccc4)c3=O)C2=O)cc1	-15	103	x	x

Gathered by group, those above with a Cl atom (two)
SMILES	HCMV UL50-53 inh	GIV-Gai inh	Sa growth 42C	Sa growth 42C second temp
Cc1ccc(Cl)cc1NC(=O)C1CCn2c(nc3ccccc32)C1 (stereo not given)	-43	107	x	x
O=C(NC1CC1)C1CCN(C(=O)c2ccc(Cl)cc2)CC1	-8	104	97	80

(next part)
SMILES	HCMV UL50-53 inh	GIV-Gai inh	Sa growth 42C	Sa growth 42C second temp
CC1=NN(c2ccc(C)c(C)c2)C(=O)/C1=C\c1ccc(-c2ccc(S(N)(=O)=O)cc2)o1	-13	x	90	87
CC1(C)CC(n2c(=O)c3c(n4cnnc24)-c2ccccc2CC32CCCCC2)CCO1 (stereo not given)	-21	94	78	101
CC(NC(=O)Nc1ccc(Cl)cc1)c1c(-n2cccc2)sc2c1CCCC2 (stereo not given)	-18	109	x	x
Cn1ccc2cc(S(=O)(=O)N3CCC(C(=O)NCCc4c[nH]c5ccccc45)CC3)ccc21	-7	104	x	x
CC(=O)N1CCN(S(=O)(=O)c2cccc(C(=O)Nc3ccnn3C(C)C3CC3)c2)CC1 (stereo not given)	-13	x	65	95
O=[n+]1cc(-c2cccc(C(F)(F)F)c2)n([O-])c2c1CCC2	-75	96	92	100
O=C(O)CCC(=O)Nc1ccc2ccccc2c1	-15	x	118	87
CC1=CC(C)(C)N(C(=O)c2ccccc2)c2ccccc21	-29&0	106&101	79	57
O=C(CSc1ccccn1)c1ccc(F)cc1	-4	107	142	113
CN(C)Cc1nc2ccccc2c(=O)n1Cc1nc(-c2cc3ccccc3o2)cs1	-16	x	136	91
C=CCOc1cccc(C(=O)NCCC)c1	1	109	95	95
COc1ccc(-c2cc3ccc(O)c(CN4CCCCC4C)c3oc2=O)cc1OC (stereo not given)	x	105	87	89
Cc1nc2ccccc2n1CCc1nc2c3ccccc3nc(SCc3ccccc3F)n2n1	x	103	86	91
CC(C)c1ccccc1NC(=O)c1cccs1	0	101	107	81
COc1ccc(/C=C/C(=O)NC(C)(C)C)cc1	-87	x	78	56
CC(=O)Nc1cc2nc3[nH]c(=O)n(C)c(=O)c3nc2cc1C	-42	69*	x	x
CCN(CC)c1cccc(OC(=O)c2cccnc2Cl)c1	-25	x	89	96
Cc1ccc(NC(=O)CCN2C(=O)c3ccccc3Sc3ncccc32)c(C)c1	x	101	92	91
O=C(CN1C(=O)C2CCCC2=Nc2ccccc21)Nc1ccccc1Br (stereo not given)	-28	105	x	x
COCCNC(=O)c1ccc(Cn2c(SCc3cccc(OC)c3)nc3ccncc32)cc1	-18	109	x	x
Cc1cccc(-c2nc(SCC(=O)Nc3ccc4c(c3)OCO4)c(-c3ccccc3)[nH]2)c1	-3	98	110	69
CCN(CC)CCn1c(C)c(C)c2c1ncn1nc(-c3ccncc3)nc21	-16	106	x	x
O=c1c2ccccc2n(Cc2ccccc2)c(=O)n1Cc1nc(-c2ccccc2)no1	3	107	100	95
COC(=O)Cc1c(C)c2ccc(O)c(C)c2oc1=O	-18	105	102	77
Cc1nc(SCC(=O)Nc2ccc3c(c2)OCCO3)c2c3c(sc2n1)CCC3	-9	103	x	x

Brought forward from above: 5 entries; new compounds follow.
SMILES	HCMV UL50-53 inh	GIV-Gai inh	Sa growth 42C	Sa growth 42C second temp
Cc1cccc(-c2nc(SCC(=O)Nc3ccc4c(c3)OCO4)c(-c3ccccc3)[nH]2)c1	-3	98	110	69
CCN(CC)CCn1c(C)c(C)c2c1ncn1nc(-c3ccncc3)nc21	-16	106	x	x
O=c1c2ccccc2n(Cc2ccccc2)c(=O)n1Cc1nc(-c2ccccc2)no1	3	107	100	95
COC(=O)Cc1c(C)c2ccc(O)c(C)c2oc1=O	-18	105	102	77
Cc1nc(SCC(=O)Nc2ccc3c(c2)OCCO3)c2c3c(sc2n1)CCC3	-9	103	x	x
COC(=O)CCC(=O)Nc1ccc(Cl)cc1	1	102	108	80
c1csc(Cc2nc3c4ccccc4ncn3n2)c1	-18	98	101	85
CN(CCc1ccccn1)C(=S)Nc1ccc(Cl)cc1Cl	-6	x	92	82
COc1cccc(S(=O)(=O)Nc2cc3[nH]c(=O)[nH]c3cc2Cl)c1	-6	111	x	x
c1ccc(CCNC2=NCCCS2)cc1	-14	x	96	87
CC(=O)N/C(=C\c1ccccc1)C(=O)OCc1c(C)noc1C	-24	x	89	86
COc1ccc(C2CC(c3ccc(OC)c(OC)c3)=NN2C(=O)c2cccs2)cc1 (stereo not given)	-24	101	x	x
O=C(COc1ccc2ccccc2c1)NC1CC(=O)N(c2cccc(F)c2)C1 (stereo not given)	x	105	123	98
O=S(=O)(Nc1ccc(Cl)cc1)c1ccc(NS(=O)(=O)c2ccc3c(c2)OCCO3)cc1	-1	99	109	73
CCOC(=O)c1nc(NCCC2=CCCCC2)c2c(C)noc2n1	9	109	x	x
CC(C)S(=O)(=O)c1c(SCC#N)sc(C#N)c1N	-89	109	92	89
CCOc1ccc(C2C(C(=O)Nc3ccc(Cl)cc3)=C(C)Nc3nc(C(F)(F)F)nn32)cc1 (stereo not given)	-76	102	92	96
O=C(OCc1nc2ccccc2s1)c1cc(=O)[nH]c(=O)[nH]1	-18	x	97	92
CCN1C(=O)c2ccccc2Sc2ccc(NC(=O)c3ccc(C)c(F)c3)cc21	x	104	97	78
Cc1nc(-c2ccc3c(c2)CCN3C(=O)Cc2ccc(F)cc2)no1	-30	111	x	x
Cc1cc(C)cc(CC(CC(=O)Nc2nncs2)C(=O)Nc2nncs2)c1 (stereo not given)	-26	105	97	80
C=CCn1c(=O)c2c3c(sc2n2c(Nc4ccccc4)nnc12)CCCC3	-13	102	114	77
COc1ccc(N2CC(NC(=O)c3ccco3)CC2=O)cc1OC (stereo not given)	x	99	102	89
CC(C)Sc1cc2c(cc1NC(=O)COc1ccc(Cl)cc1)n(C)c(=O)n2C	-11	111	x	x
N#CCS(=O)(=O)c1ccccc1F	-3	107	88	82
COc1ccc(OCC(=O)Nc2cccnc2)cc1	3	x	119	92
CCOC(=O)c1cnn(-c2cc(C)nc3c(-c4ccc(C)cc4)c(C(F)(F)F)nn23)c1N	-10	98	x	x
COc1ccc(-c2cc3c(=O)n(CC(=O)NC4CC4)ncn3n2)cc1	-14	99	x	x
CCc1nnc(NC(=O)c2ncn[nH]2)s1	6	x	81	80
CCOc1ccc(CNC(=O)CSc2c3c(nc4ccc(Cl)cc24)CCCC3)cc1	5	105	117	95

Remaining list, next part:
SMILES	HCMV UL50-53 inh	GIV-Gai inh	Sa growth 42C	Sa growth 42C second temp
CS(=O)(=O)N1CCC(NC(=O)Cc2ccccc2)CC1	-3	104	105	81
CCOC(=O)c1c(NC(=O)COC(=O)c2cn(CC)c3nc(C)ccc3c2=O)sc2c1CCCC2	3	x	97	93
CCN1C(=O)c2ccccc2Sc2ccc(NC(=O)Nc3ccc(C(C)=O)cc3)cc21	-6	98	83	98
O=C(Cn1nc(-c2ccccc2)c2cc(Cl)ccc21)NCc1cccnc1	4	101	x	x
CCOC(=O)CCc1c(C)nn(-c2ccc(Cl)nn2)c1C	x	104	95	89
COc1ccc(C(=O)NCCc2sc(-c3cccc(C)c3)nc2C)cc1	x	101	116	73
Cc1cccc(N2CCN(C(=O)c3oc(=O)c4ccccc4c3-c3ccccc3)CC2)c1C	-22	101	92	88
Cc1ccc2nc(-c3ccsc3)c(NCC(=O)NN)n2c1	-32	95	85	75
Cc1c(C#N)c2ncnc(-c3ccccc3)c2n1Cc1ccccc1	-11	102	116	103
O=C(/C=C1\Sc2ccccc2NC1=O)NC1CC1	x	95	94	74
C1CCN=C(Nc2nc3c(s2)CCCC3)CC1	-12	x	116	89
CCN(CC)S(=O)(=O)c1ccc(N2CCN(C(=O)c3ccccc3)CC2)nc1	14	x	92	101
CC(C)c1ccc(OCc2ccc(C(=O)NCc3ccco3)cc2)cc1	x	110	76	89
COc1ccc(N(C)C(=O)c2cn(C)c(=O)c3cc(OC)c(OC)cc23)cc1	11	106	89	104
C=CCOn1c(=O)c(C)[n+]([O-])c2ccccc21	-24	103	x	x
CCOC(=O)c1ccc(-c2ccc(/C=C(\C#N)C(=O)Nc3cccc(C)c3)o2)cc1	x	129	85	89
COc1ccc(Br)cc1CNC(=O)C1CCCCN1S(=O)(=O)c1ccc(F)cc1 (stereo not given)	x	104	89	90
O=C(Nc1ccc(F)cc1)C1CC(=O)N(Cc2ccc3c(c2)OCO3)C(=Nc2ccccc2)S1 (stereo not given)	-4	99	x	x
Cc1sc(NC(=O)c2cccnc2)nc1-c1ccc2c(c1)NC(=O)C(C)O2 (stereo not given)	0	97	x	x
Nc1c(S(=O)(=O)c2ccccc2)c2nc3ccccc3nc2n1-c1cccc(S(N)(=O)=O)c1	-38	x	78	78
Cc1ccccc1OCC(O)CNC(C)C1CC2CCC1C2 (stereo not given)	-20	x	94	69
COc1ccc2cc3c(nc2c1)N(C(=O)C(c1ccccc1)c1ccccc1)CC3	4	108	x	x
CCc1ccc(NC(=O)C(OC)c2ccccc2)cc1 (stereo not given)	-16	108	136	96
CCC(C)(C)NC(=O)c1cc(Cl)ccc1OC	7	103	105	99
CC1=C(C(=O)Nc2ccccc2)C(C2CCCCC2)C(C#N)=C(N)O1 (stereo not given)	-8	x	99	88

(cont.)
SMILES	HCMV UL50-53 inh	GIV-Gai inh	Sa growth 42C	Sa growth 42C second temp
COc1ccc(N2CCN(C(=O)C(CCSC)N=C3NS(=O)(=O)c4ccccc43)CC2)cc1 (stereo not given)	-34	x	100	95
OCCN1CCN(c2cc(C(F)(F)F)nc3ccccc23)CC1	-30	95	96	85
Cc1ccccc1NC(=O)CCCn1nc(C)c2c(C)n(-c3ccccc3)nc2c1=O	-18	106	96	86
CCOC(=O)c1c(-c2ccccc2)nc(=O)[nH]c1-c1ccc(-c2ccc(F)cc2)o1	-1	109	105	98
COc1ccc(C(=O)OCC(=O)Nc2ccc3[nH]c(=O)[nH]c3c2)cc1	-25	x	102	87
O=C(NCCSC1CCCCC1)c1ccco1	-13	x	85	80
NC(=O)c1cc(NC(=O)/C=C/c2cccc(F)c2)cc(C(N)=O)c1	-73	x	92	90
c1ccc(CCc2nc3ccccc3[nH]2)cc1	-29	x	103	74
Cc1ccc(C)c(S(=O)(=O)N2CCc3cc4ccc(C)cc4nc32)c1	11	97	x	x
COc1ccc(C2CCN(C(=O)N(C(C)C)C(C)C)CC2)cc1	-6	100	89	85

Among those listed so far, 2 have bromine:
SMILES	HCMV UL50-53 inh	GIV-Gai inh	Sa growth 42C	Sa growth 42C second temp
O=C(CN1C(=O)C2CCCC2=Nc2ccccc21)Nc1ccccc1Br (stereo not given)	-28	105	x	x
COc1ccc(Br)cc1CNC(=O)C1CCCCN1S(=O)(=O)c1ccc(F)cc1 (stereo not given)	x	104	89	90

Screening data from PubChem BioAssay.
